PrP 5UTR inh: inhibition of PrP 5' UTR reporter expression; inhibition, % (concentration not given with the values); cell-based PrP 5' UTR mRNA reporter, plate reader; actives 0.35% (n = 340,000);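 active = every replicate at 50% or more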;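 note: 0 = median of the neutral control wells; tested in H4 reporter cells; numbers are from one replicate; inactives centre near -14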
Mtb hypoxia inh: PubChem AID 1159583; M. tuberculosis hypoxia-regulated fluorescent reporter, fluorescence; fluorescence inhibition, % (test concentration not listed); actives 0.1% (n = 300,000);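 active = 35 to 45% if threefold the growth effect, above 45% if 1.5-fold the growth effect; inactive = the rest, general growth blockers included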;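 note: wells of about 50 µL received 100 nL stock; 0% = vehicle wells and 100% = reference inhibitor wells; whole bacteria with a GFP reporter of the hypoxia response; strong numbers were not always called active; many hits fall short of the cut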
BJeLR lethal: MLPCN primary cell-based screen for lethality selective to Ras in HRASV12 cells | BJeLR (HRASV12) viability, CellTiter-Glo ATP luminescence, 48 h; reference of the scale not given here | inhibition, % (concentration not given with the values) | actives 0.17% (n = 300,000);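 active = replicate mean above 50%; inconclusive = above 50% but judged a plate artefact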;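 note: 50 nL library stock added to about 25 µL; numbers are from one replicate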
Sa RN4220 lethal: growth inhibition of S. aureus RN4220, primary screen, OD600; inhibition, % (no concentration beside the values); AID 1259311, 2017; 16 h; actives 0.33% (n = 330,000);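 active = z-score of -3 or lower and OD600 up to 0.18 on both plates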;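 note: plate controls were untreated cells for no effect and reference antibiotic for full effect; stock transfer was 100 nL into about 80 µL; one replicate is shown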
Autofluor counter: flagged as autofluorescent in microsphere protease counterscreen; fluorescence intensity (concentration not given with the values); actives 3.1% (n = 360,000); compound autofluorescence counterscreen, microsphere flow cytometry; active compounds read high;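 active = at least 3 SD above the mean of all compounds, about 16000 in these data; inconclusive = too few beads counted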;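 note: 100 nL of 1 mM stock went into each well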
ugtP null kill: growth inhibition of ugtP-null S. aureus, primary screen, RN4220 ugtP deletion, OD600; 16 h; some inactives read as strong as hits; growth inhibition, % (concentration not given with the values); actives 0.54% (n = 330,000); AID 1259309, 2017;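 active = z-score under -3 and OD600 up to 0.15 on both plates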;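 note: plate controls were untreated wells for no effect and antibiotic for full effect; wells of about 80 µL received 100 nL stock; the first replicate is given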
Mtb hypoxia inh growth: second read-out of Mtb hypoxia inh, no call of its own (marks repeat the call); growth inhibition, %; measured here: M. tuberculosis growth (absorbance);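 0% = vehicle and 100% = reference antibiotic; read after six days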
An asterisk follows results filed as active; ? = inconclusive; / = not tested or not shown; & = joins results of further samples.

SMILES	PrP 5UTR inh	Mtb hypoxia inh	Mtb hypoxia inh growth	BJeLR lethal	Sa RN4220 lethal	Autofluor counter	ugtP null kill
C=CCC1=C/C(=C\c2c(N)n3nc(CC(=O)N4CCOCC4)sc3nc2=O)C=C(OC)C1=O	-11	/	/	4	/	5903	/
Cc1ccccc1OCCn1cc(C(=O)C(=O)N2CCOCC2)c2ccccc21	-8	-9	-4	2	-0.7	4398	6
COc1ccc(-c2cc(C(=O)Nc3cc(C)nn3-c3ccccc3)no2)cc1OC	-7	10	8	1	-0.9	3902	6
COc1ccc(S(=O)(=O)NC(C)C(=O)NCc2ccc3c(c2)OCO3)cc1OC (stereo not drawn)	5	1	9	-1	1.4	4987	13
COC(=O)C(O)(NC(=O)c1ccncc1)C(F)(F)F (stereo not drawn)	-7	-7	-5	-5	84*	4566	76
CCOC(=O)C(=O)Nc1ccc(OC)c(Cl)c1	-12	9	4	-10	1.4	2459	0
CCCCc1nc(NCC2CCCO2)c(C#N)c2c1COC(C)(C)C2 (stereo not drawn)	0	/	/	-2	0.4	4606	16
CCc1nnc(NC(=O)CN2CCN(C3CCCCC3)CC2)s1	-16	9	-2	-9	3.8	7712	1
CNC(=S)NC1(C)CCS(=O)(=O)C1 (stereo not drawn)	-4	10	9	3	4.4	3989	9
CCC(=O)Nc1cccc(NC(=O)c2cccnc2)c1	-12	/	/	0	-4.2	3515	4
Cn1c(CNC(=O)Nc2cccc(Cl)c2)nnc1SCc1ccccc1	-6	/	/	5	-12	4823	-16
COc1cc2[nH]c(=O)n(-c3cccc(Cl)c3)c(=O)c2cc1OC	-5	6	5	6	5.1	3521	0
CS(=O)c1ccccc1COC(=O)Nc1ccc(Cl)cc1 (stereo not drawn)	-17	/	/	-3	1.2	2231	2
O=C(Nc1ccc(Oc2ccccc2)nc1)C1CCN(Cc2ccccc2)CC1	-2	-1	15	2	-0.4	6590	-7
CC(=O)Nc1ccc(Sc2ncccc2C(=O)Nc2ccc(F)cc2)cn1	-28	8	13	6	4.3	5728	9
CCOC(CCNC(=O)CCC(=O)Nc1ccc2nc(N3CCN(C)CC3)cc(C)c2c1)OCC	-15	6	-4	-8	4.3	3045	4
COc1ccc(S(=O)(=O)N2CCc3ccccc32)cc1C(=O)NCc1ccco1	-12	-5	7	/	1.0	6243	4
COc1cc(NC(=O)C2CC(c3cccc(Br)c3)=NO2)cc(OC)c1OC (stereo not drawn)	-13	-7	-2	-1	-1.2	3964	4
COC(=O)N1N=C(c2ccccc2)CC1(O)C(F)(F)F (stereo not drawn)	-31	8	3	-11	3.4	8268	5
O=C(CN1C(=O)c2ccccc2S1(=O)=O)Nc1ccc(S(=O)(=O)N2CCCCC2)cc1	-14	/	/	-1	-1.9	2891	2
COc1ccc(C2=NS(=O)(=O)N(C)C(C(=O)Nc3ccc(C)cc3)=C2)cc1	-3	2	4	2	14	5780	15
Cc1cc(=O)n2nc(N3CCCC3C(=O)Nc3ccc(C(C)C)cc3)sc2n1 (stereo not drawn)	14	0	0	8	0.0	7914	0
O=C1NC(=O)[C@]2(Cc3ccccc3N3CCN(c4ccccc4)CC32)C(=O)N1Cc1ccccc1 (stereo partly drawn)	-20	0	5	1	6.6	4621	-15
CCOc1ccccc1NC(=O)CN1c2cccc3cccc(c23)S1(=O)=O	-29	8	-5	/	7.7	8669	4
COc1ccc(NC(=O)c2oc3ccccc3c2NC(=O)C2CC2)c(OC)c1	-14	-3	6	-6	1.0	5321	2

Compound profiles, as listed above. Values in the order: PrP 5UTR inh, Mtb hypoxia inh, Mtb hypoxia inh growth, BJeLR lethal, Sa RN4220 lethal, Autofluor counter, ugtP null kill
Record of COc1ccc(NC(=O)c2oc3ccccc3c2NC(=O)C2CC2)c(OC)c1 → -14, -3, 6, -6, 1.0, 5321, 2
Record of COc1ccc(C2=NS(=O)(=O)N(C)C(C(=O)Nc3ccc(C)cc3)=C2)cc1 → -3, 2, 4, 2, 14, 5780, 15

Additional compounds
SMILES	PrP 5UTR inh	Mtb hypoxia inh	Mtb hypoxia inh growth	BJeLR lethal	Sa RN4220 lethal	Autofluor counter	ugtP null kill
COc1cc(OC)c(OC)cc1C#N	-25	/	/	-2	4.1	5419	2
Cc1ccccc1CC1(CO)CCCN(C(=O)c2ccc3ncccc3c2)C1 (stereo not drawn)	-17	3	9	-3	0.8	2793	-3
O=C(CCc1nnc(CCCCc2ccccc2)o1)NC(c1cccnc1)C(F)(F)F (stereo not drawn)	-3	10	3	5	1.7	4557	8
C#CCOCCOCCOCCNc1nc(N2CCN(C(=O)C([C@@H](C)O)n3cc([C@@H](N)CCCCN)nn3)CC2)nc(N2CCN(C(=O)[C@H](CC(N)=O)n3cc([C@@H](N)C(C)C)nn3)CC2)n1 (stereo partly drawn)	-7	1	1	/	-0.3	4100	1
CCOC(=O)c1c(NC(=O)CSc2nc3ccc(C)cc3[nH]2)sc2c1CC(C)(C)NC2(C)C	-12	8	7	-8	1.7	6891	-4
O=C(N/N=C/c1cccs1)c1ccc(NC(=O)c2ccccc2Cl)cc1	-10	/	/	5	/	2611	/
O=C(COC(=O)C1CC1)NCCNC(=O)COC(=O)C1CC1	-8	-5	-1	-3	0.8	5633	4
CN(C)c1ccc(/C=C/c2ccc3ccccc3[n+]2C)cc1	1	11	11	44	97*	2045	95*
COCCCN1C(=O)C(=O)C(=C(O)c2ccc(OC(C)C)cc2)C1c1cccnc1 (stereo not drawn)	/	4	1	/	5.9	/	3
O=C(NNC(=O)c1ccc(SCC2CCCO2)c([N+](=O)[O-])c1)c1ccc(F)cc1 (stereo not drawn)	-8	5	8	1	3.5	9871	-2
CCOc1cc(-c2ccc(N)c(OCC)c2)ccc1N	-9	/	/	-5	1.6	4224	1
COc1ccc(-n2nc(C(=O)NCC(=O)N3CCCCCC3)c3ccccc3c2=O)cc1OC	-17	7	6	-4	-1.7	3754	0
CCOc1cc(C(=O)OC(C)C(=O)Nc2ccc(S(N)(=O)=O)cc2)ccc1OCC(=O)N1CCOCC1 (stereo not drawn)	-15	2	-1	-15	-0.1	/	8
COc1ccccc1N(CC(=O)NCC1CCCO1)C(=O)CNS(=O)(=O)c1ccc(Cl)cc1 (stereo not drawn)	-15	9	-1	-14	0.3	4431	2
Cc1ccc(-c2noc(CCC(=O)Nc3ccc4c(c3)OCO4)n2)cc1	60*	/	/	4	-0.2	2284	-9
O=C(Nc1ccncc1)c1ccc(Cl)c(S(=O)(=O)N2CCc3ccccc32)c1	3	0	9	14	-1.4	?	-22
O=C(NC1CCCCC1)c1cccnc1Sc1ccccc1	-17	7	1	-5	-0.2	3640	10
Cc1nn(Cc2ccccc2)c(C)c1C=NNC(=O)CNc1cccc(C(F)(F)F)c1	/	9	5	/	-4.9	/	24
CCn1c2ccccc2c2cc(NC(=O)c3ccccc3-c3ccccc3C(=O)O)ccc21	30	/	/	-5	17	4207	7
CC1CN(C(C)CO)C(=O)c2cc(NC(=O)CCCCCC(=O)Nc3ccccc3N)ccc2OC1CN(C)Cc1ccncc1 (stereo not drawn)	/	15	9	/	8.2	/	9
CCN(CC)S(=O)(=O)c1ccc2[nH]c(=O)cc(C(=O)NCC(c3ccco3)N3CCCC3)c2c1 (stereo not drawn)	-11	1	-2	8	0.5	5114	4
O=C1CC(Cc2ccccc2)C(=O)N1CCc1ccc2c(c1)OCO2 (stereo not drawn)	-4	11	4	2	6.7	2576	0
O=C1c2ccc(-c3ccc(Cl)c(C(F)(F)F)c3)cc2S(=O)(=O)c2cccc(C(=O)N3CCN(c4ccc(Cl)cn4)CC3)c21	-10	10	-2	/	-4.7	4260	4
Cc1cc(/C=C2/C(=O)NC(=O)N(Cc3ccco3)C2=O)c(C)n1-c1ccccc1	-3	2	3	-23	1.3	2787	3
O=C(Cn1nnc(-c2cccs2)n1)OC1CCCCC1	-12	-5	4	-1	5.8	?	15

Remaining list, next part
SMILES	PrP 5UTR inh	Mtb hypoxia inh	Mtb hypoxia inh growth	BJeLR lethal	Sa RN4220 lethal	Autofluor counter	ugtP null kill
S=c1[nH]nc(C2CCCCC2)n1N=Cc1ccncc1	/	-2	2	/	5.2	/	-1
CCn1c(SCC(=O)O)nnc1-c1ccccc1OC	-10	11	11	-7	3.8	3401	5
C[C@H](CCC(=O)O)[C@H]1CC[C@H]2[C@@H]3CC[C@@H]4C[C@H](O)CC[C@]4(C)[C@H]3C[C@H](O)[C@]12C	-21&-11&8	/	/	6	37	6054&5810&5765	19
CC(C)c1ccc(S(=O)(=O)N2CCN(C(=O)CN3C(=O)NC(C)(c4ccccc4)C3=O)CC2)cc1 (stereo not drawn)	-9	0	3	-5	5.7	6146	4
CC1(OC(=O)CCc2ccccc2)C(=O)C=C2C=C(c3ccc(C#N)cc3)N(c3ccccc3)C=C2C1=O (stereo not drawn)	-17	23	7	-2	6.2	3448	5
CCC(Oc1ccccc1)C(=O)OCC(=O)Nc1sccc1C(N)=O (stereo not drawn)	4	8	-4	/	5.0	3029	5
C=CCNC(=O)C1COc2ccccc2O1 (stereo not drawn)	-7	12	24	-16	7.1	4136	0
Cc1cc2oc3cc(NCCC4CCCN4C)ccc3c(=O)c2cc1C (stereo not drawn)	-25	21	21	13	-2.7	5095	5
CN(CC(=O)Nc1ccc(Cl)c(C(F)(F)F)c1)C(=O)c1cccc(N2C(=O)CCC2=O)c1	3	1	-1	/	2.6	4057	2
O=C1Nc2ccccc2C(=O)N2C[C@@H](O)C[C@H]12	-6	-1	2	-2	3.9	3353	5
CCCn1c(N)c(N(CCOC)C(=O)c2c(CC)noc2C)c(=O)[nH]c1=O	-15	4	8	/	1.1	?	5
Cc1occc1C(=O)Nc1cnn(CCCC(=O)O)c1	-1	0	4	-9	1.7	5208	0
Cc1cc(NC(=O)CSc2nccn2C)no1	0	-3	9	-2	0.7	2070	4
O=C(NCCN1CCNC1=O)C1CCC(=O)N(CCc2ccccc2)C1 (stereo not drawn)	-17	5	3	-4	2.1	5484	1
O=C(CSc1nc2c(cnn2-c2ccccc2)c(=O)[nH]1)c1ccc(Cl)cc1	-25	-19	1	1	5.4	10408	-10
CCCCCC(=O)N1CCN(S(=O)(=O)c2ccc3c(c2)OCCCO3)CC1	-21	10	-2	-10	3.3	5989	9
O=C(CSc1nccn(-c2ccc3c(c2)OCCO3)c1=O)Nc1ccccc1	-16	-2	0	6	-1.4	?	7
Cc1cc(Cl)n2ncc(-c3ccccc3)c2n1	-32	-6	0	5	7.8	3960	-2
Cc1cc(N2CCN(C(=O)c3ccco3)CC2)n2nc(C)nc2n1	8	/	/	-2	1.2	5976	7
Fc1ccc(OCc2nc(-c3ccncc3)n[nH]2)cc1	-21	9	6	-1	-1.4	4027	-1
COc1ccccc1Nc1ccc2nonc2c1[N+](=O)[O-]	-21	1	-6	3	4.3	3252	13
COC(=O)c1ccc(CNC(=O)c2ccc(S(=O)(=O)N3CCCCCC3)cc2)cc1	-9	9	20	/	2.3	3674	2
COc1cccc(OCCCn2ccnc2)c1	-1	-2	2	-10	3.6	4126	0
COCCN(C(=O)CSc1nc2ccccc2o1)c1c(N)n(Cc2ccccc2)c(=O)[nH]c1=O	-9	-3	2	/	6.4	/	-2
COc1ccc(N(CC(=O)NCc2ccccc2Cl)S(=O)(=O)c2c(C)noc2C)cc1	-7	15	11	11	3.2	6154	4
N=c1ccn(Cc2ccccc2Cl)cc1	4	/	/	11	1.3	5290	6
O=C(c1ccc(Cl)cc1[N+](=O)[O-])N1CCOCC1	-9	-2	2	-6	7.5	4943	8
O=C(Nc1ccc(S(=O)(=O)Nc2nccs2)cc1)C1CC(=O)N(c2ccccc2)C1 (stereo not drawn)	-18	17	6	-2	0.3	4382	-4
Cc1ccc(NCc2nnc(SCC(=O)NCCc3ccccc3)n2C)cc1	-7	/	/	0	/	10472	/
O=C(Nc1ncccn1)c1cccc(Cl)c1	/	2	-5	-3	3.2	/	6

Structures shown so far containing two or more sulfur atoms:
SMILES	PrP 5UTR inh	Mtb hypoxia inh	Mtb hypoxia inh growth	BJeLR lethal	Sa RN4220 lethal	Autofluor counter	ugtP null kill
CNC(=S)NC1(C)CCS(=O)(=O)C1 (stereo not drawn)	-4	10	9	3	4.4	3989	9
O=C(CN1C(=O)c2ccccc2S1(=O)=O)Nc1ccc(S(=O)(=O)N2CCCCC2)cc1	-14	/	/	-1	-1.9	2891	2
CCOC(=O)c1c(NC(=O)CSc2nc3ccc(C)cc3[nH]2)sc2c1CC(C)(C)NC2(C)C	-12	8	7	-8	1.7	6891	-4
O=C(Nc1ccc(S(=O)(=O)Nc2nccs2)cc1)C1CC(=O)N(c2ccccc2)C1 (stereo not drawn)	-18	17	6	-2	0.3	4382	-4
